VACV mCherry inh = qHTS for Stage-Specific Inhibitors of Vaccinia Orthopoxvirus: mCherry Reporter Primary qHTS; Vaccinia virus mCherry reporter infection, fluorescence; about a quarter of the inactives have no number; Potency, µM (series often up to 36.5 µM), without a hit: at the highest dose activity change, negative = inhibition, hits mostly inhibitors; 0.63% of 310,000 active; active = well fitted inhibition curve with a large enough effect; inconclusive = small, poorly fitted or top-dose-only effect; inactive = no such curve, though single readings can be large or run the other way; tested in A549 cells; note: nearly all actives have a fitted effect of over 35% in size; inactives centre near -10
Vaccinia Venus = qHTS for Stage-Specific Inhibitors of Vaccinia Orthopoxvirus: Venus Reporter Primary qHTS; AID 720580, 2013; Potency, µM (series often up to 36.5 µM), for the others: top-dose activity change, negative = inhibition, actives largely listed as inhibitors; Vaccinia virus Venus reporter expression, fluorescence; 0.46% of 330,000 active; active means well fitted inhibition curve with a large enough effect; inconclusive means small, poorly fitted or top-dose-only effect; inactive means no such curve, though single readings can be large or run the other way; tested in A549 cells; note: nearly all actives have a fitted effect of over 30% in size; inactives centre near -10
Numbers without * were called inactive; i = inactive; u = inconclusive; x = no result given; & = joins results of further samples; [ ] = remark or other dose. % is set by controls: 0 for no effect and ±100 for the full control effect; potency is the fitted concentration of half-maximal effect. Compounds as they come, and some 0.86% of all compounds hit somewhere here.

Start of the data: the first 2 compounds (preview)
SMILES	VACV mCherry inh	Vaccinia Venus
CCOC(=O)c1cccc(NC(=O)Cn2cc3c(n2)CCC(C)C3)c1 (stereo not given)	1%	0%
CCO[C@H]1OC(C(N)=O)=C[C@@H](C2CC2)[C@@H]1CCCO	i	-6%

All compounds of this part, previewed entries included:
SMILES	VACV mCherry inh	Vaccinia Venus
CCOC(=O)c1cccc(NC(=O)Cn2cc3c(n2)CCC(C)C3)c1 (stereo not given)	1%	0%
CCO[C@H]1OC(C(N)=O)=C[C@@H](C2CC2)[C@@H]1CCCO	i	-6%
CSCCC(NC(=O)c1ccc([N+](=O)[O-])cc1Cl)C(=O)OC(C)C(=O)NCc1ccco1 (stereo not given)	i	-22%
CCC(CO)Nc1nc(CN2CCCCC2)nc2scc(-c3ccccc3)c12 (stereo not given)	i	-24%
O=C(O)Cc1ccc(C(=O)c2ccccc2)s1	-11%	1%
COCC(C)n1c(SCC(=O)N2CCCCC2)nc2ccccc2c1=O (stereo not given)	i	-10%
Cc1ccccc1S(=O)(=O)NC(=O)C1(C)CCN1C(=O)C1(c2ccc(Cl)cc2)CC1 (stereo not given)	-1%	8%
C/C(O)=C(\C#N)c1nnc2n1CCCCC2	-8%	1%
CCOc1cc(C2NC(=O)NC(C)=C2C(=O)OCC2CCCCC2)ccc1O (stereo not given)	-7%	-27%
COCCn1c(=N)c(C(=O)NCc2ccco2)cc2c(=O)n3cc(C)ccc3nc21	-4%&-1%	-17%&0%
CCCn1nnnc1NCc1cccc(OC)c1OC	-17%	-2%
CCc1c(-c2ccccc2)nc2ccccc2c1C(=O)NCc1ccc(C)cc1	-19%	-12%
CCCn1c(SCC(=O)c2cc(OC)ccc2OC)nnc1C(C)C	8%	2%
Cc1cccc2c(=O)cc(C)n(CC(=O)N3CCOCC3)c12	-10%	-2%
Cc1ccc(C2=C(CC(=O)O)C(=O)CC2)cc1	-10%	-12%
CNC(=S)N/N=C/c1cccc(OCc2ccccc2F)c1	-5%	-25%
CCn1c(=O)n(CC)c2cc(S(=O)(=O)Nc3c(C)cccc3C)ccc21	-2%	-25%
COc1ccc(NC(=O)Nc2ccc(C(C)C)cc2)cc1	-12%	-1%
CC(C)(C)OC(=O)NNC1CC(=O)N(c2ccccc2F)C1=O (stereo not given)	i	2%
CCN1CCN(c2sc(S(=O)(=O)CC)nc2S(=O)(=O)c2ccc(C)cc2)CC1	u	-21%

Another view of some results above:
Molecule,VACV mCherry inh,Vaccinia Venus
CCC(CO)Nc1nc(CN2CCCCC2)nc2scc(-c3ccccc3)c12 (stereo not given),i,-24%
O=C(O)Cc1ccc(C(=O)c2ccccc2)s1,-11%,1%
COCC(C)n1c(SCC(=O)N2CCCCC2)nc2ccccc2c1=O (stereo not given),i,-10%
Cc1ccccc1S(=O)(=O)NC(=O)C1(C)CCN1C(=O)C1(c2ccc(Cl)cc2)CC1 (stereo not given),-1%,8%
C/C(O)=C(\C#N)c1nnc2n1CCCCC2,-8%,1%
CCOc1cc(C2NC(=O)NC(C)=C2C(=O)OCC2CCCCC2)ccc1O (stereo not given),-7%,-27%
COCCn1c(=N)c(C(=O)NCc2ccco2)cc2c(=O)n3cc(C)ccc3nc21,-4%&-1%,-17%&0%
CCCn1nnnc1NCc1cccc(OC)c1OC,-17%,-2%
CCc1c(-c2ccccc2)nc2ccccc2c1C(=O)NCc1ccc(C)cc1,-19%,-12%
CCCn1c(SCC(=O)c2cc(OC)ccc2OC)nnc1C(C)C,8%,2%
Cc1cccc2c(=O)cc(C)n(CC(=O)N3CCOCC3)c12,-10%,-2%
Cc1ccc(C2=C(CC(=O)O)C(=O)CC2)cc1,-10%,-12%
CNC(=S)N/N=C/c1cccc(OCc2ccccc2F)c1,-5%,-25%
CCn1c(=O)n(CC)c2cc(S(=O)(=O)Nc3c(C)cccc3C)ccc21,-2%,-25%
COc1ccc(NC(=O)Nc2ccc(C(C)C)cc2)cc1,-12%,-1%

Next results
SMILES	VACV mCherry inh	Vaccinia Venus
Oc1cccnc1CN1CCCCC1	-13%	-8%
O=C(Cn1c(=O)oc2cc(S(=O)(=O)N3CCCC3)ccc21)N1CCCC1	-12%	-2%
CCCC1(C(=O)OC)NC(c2ccc(OC)c(OC)c2)C2C(=O)N(c3cccc(C(C)=O)c3)C(=O)C21 (stereo not given)	i	1%
CCCCCCCCOC(=O)c1nc(Cl)c(Cl)c(N)c1Cl	-17%	2%
CC(C)N1CCC(=NNc2ccc(S(=O)(=O)N3CCOCC3)cc2[N+](=O)[O-])CC1	-9%	-10%
Nc1ccc(S(N)(=O)=O)cc1	-5%	-8%&-8%
CCCC1(CCO)C(=O)NC(=S)NC1=O	-15%	-11%
CCN(CC)S(=O)(=O)c1ccc(C(=O)NCCc2ccccn2)cc1	-10%	-7%
CCOC(=O)c1ccc(-c2ccc(/C=N/NC(=O)CN(c3cccc(C)c3)S(C)(=O)=O)o2)cc1	-11%	-1%
N#CC(CCc1ccc([N+](=O)[O-])cc1)(CCc1ccc([N+](=O)[O-])cc1)C(N)=O	i	17%
Cc1cccc(-c2sc(Nc3ccccc3)n[n+]2-c2ccc(F)cc2)c1	i	-3%
O=C(Cc1n[nH]c(=O)c2ccccc12)Nc1cc(Cl)ccc1-n1cncn1	-10%	5%
Cc1cc(Cl)cc(Cl)c1OCCOCCN(C)C	13%	-10%
CC(C)C[C@H]1CN(CCCC[C@H]2CNC(=O)C(=O)N2CCC2CCCCC2)C(=O)C(=O)N1CC1CCCCC1	-7%	-16%
O=C(CN1C(=O)c2ccc([N+](=O)[O-])cc2C1=O)Nc1ccccc1N1CCCC1	-6%	7%
Nc1cc(N)nc(CS)n1	-4%[7.34 µM]	0%[7.34 µM]
S=c1nc(NCCc2ccccc2Cl)c2ccccc2[nH]1	i	u
Clc1ccccc1C1=Nn2c(nnc2-c2ccncc2)SC1	-28%	-14%
CCC(C)[C@H](NC(=O)OC(C)(C)C)C(=O)N/N=C/C1=Cc2ccccc2OC1 (stereo not given in full)	-30%	-22%
O=[N+]([O-])c1ccc(S(=O)(=O)N2CCN(c3ccnc4cc(Cl)ccc34)CC2)cc1	u	-6%
CCCNC(=O)C1(C)CCCN(C/C=C/c2ccccc2)C1 (stereo not given)	26%	4%
COc1ccc(C(=O)NCC(=O)N2CCN(C(=O)c3ccco3)CC2)cc1	-11%	-4%
CCC(C(=O)OCC(=O)Nc1cc(C)ccc1OC)c1ccccc1 (stereo not given)	i	-21%
N/C(=N\OC(=O)Cc1ccccc1)c1ccc([N+](=O)[O-])cc1	0%	-12%
COc1ccc(S(=O)(=O)N2CCOC2CNC(=O)C(=O)NCCc2ccccc2OC)cc1 (stereo not given)	-12%	-22%
CCO[C@H]1OC(C(=O)N2CCCCCCC2)=C[C@@H](c2coc3ccccc3c2=O)[C@@H]1CCCO	0%	-6%
CC(=O)[C@H]1CCC2C3CC=C4C[C@@H](O)CC[C@]4(C)C3CC[C@@]21C (stereo not given in full)	i	-10%
Cc1ccc(-n2nnnc2SCC(=O)Nc2nc(-c3ccc(F)cc3)cs2)cc1C	-20%	-10%
CCC(=O)OC1(C)C(=O)C=C2C=C(c3ccsc3)OC=C2C1=O (stereo not given)	i	11%
CCOc1cc(/C=C/c2ccc3cccc([N+](=O)[O-])c3n2)ccc1O	u	u
N/C(=N\O)c1ccncc1	-16%[7.34 µM]	-6%[7.34 µM]
O=C(C1CCN(S(=O)(=O)N2CCC3(CC2)OCCO3)CC1)N1CCC(Cc2ccccc2)CC1	i	-17%
CN(C)CC1CSCCC1(O)c1ccccc1Cl (stereo not given)	-14%	-7%
CCCCNC(=O)[C@H]1C[C@H]1[C@@H](O)[C@H](CO)NC(=O)[C@H](COCc1ccccc1)NC(=O)OC(C)(C)C	i	-19%
O=C(Nc1ccc(N2CCOCC2)cc1)C1CCCCC1	-27%	-22%
CC1(C(=O)Nc2cccc3ccccc23)CCN1C(=O)Cc1ccccc1Cl (stereo not given)	17%	-1%
CCN(CC)S(=O)(=O)c1cccc(-c2cn3cc(C)ccc3n2)c1	-25%	u
CC(=O)c1ccc(OCc2nnn(CC(=O)O)c2-c2ccccc2)cc1	i	-3%
CCOC(=O)c1c(S(=O)(=O)NCC(=O)Nc2ccc(C(C)=O)cc2)c(C)n(C)c1C	8%	10%
COc1cccc(C(c2nnnn2Cc2ccccc2)N2CCN(C3CCCC3)CC2)c1OC (stereo not given)	x	9%
CC(=O)N1c2ccccc2NC2=C(C(=O)CCC2)C1c1ccco1 (stereo not given)	10%	7%
CCN(CC(=O)Nc1cc(Cl)ccc1C)C(=O)CCOc1ccccc1C	u	u
Cc1cccc(C)c1NC(=O)CSc1ncc2c(n1)-c1ccc(Cl)cc1N(Cc1ccccc1)S2(=O)=O	-10%[7.34 µM]	-7%[7.34 µM]
CCn1c(SC(C)C(=O)O)nc2sc3c(c2c1=O)CCC3 (stereo not given)	x	-4%
O=C(OC1CCCCC1=O)c1ccc(S(=O)(=O)Nc2ccccc2)cc1 (stereo not given)	-7%	-11%
CCN(C[C@H]1N[C@@](C)(C(=O)OC)[C@H]2C(=O)N(C)C(=O)[C@@H]12)S(=O)(=O)c1ccc(C)cc1	i	-5%
Cc1cc(C(=O)Nc2ccc(F)cc2)c2ccccc2n1	-2%	-5%
O=S1(=O)CCO[C@H]2Cc3ccccc3[C@H]2N1Cc1cccc(Cl)c1	-13%	-9%&-6%
CN(C(=O)COC(=O)CNC(=O)c1ccc(Cl)cc1Cl)c1ccccc1	-12%	-5%
Cn1c(O)c(/C=N/N2CCOCC2)c(=O)n(-c2ccccc2)c1=S	i	-2%
COc1cccc(N2CC(C(=O)Nc3nnc(SCCN4CCOCC4)s3)CC2=O)c1 (stereo not given)	-21%	-3%
CC1(C)CC(=O)c2cc(-c3nc(-c4ccc(Br)cc4)cs3)c(=O)n(-c3ccccc3)c2C1	-2%	-7%
CCN(CC)C(=O)CSc1nnc([C@@H](N)C(C)C)o1	-18%	-9%
C[C@H]1CN=C(Nc2ccccc2)N1CCc1ccc(F)cc1	i	-6%
O=C(NCc1ccc(Cl)cc1)C1CCN(S(=O)(=O)Cc2ccccc2)CC1	-7%	-4%
CCOc1ccc(-n2c(SCC(=O)Nc3ccc(CC)cc3)nc3c(oc4ccccc43)c2=O)cc1	-12%	-15%
COC(=O)c1cc(NC(=O)CN(c2ccc(OC)cc2)S(=O)(=O)c2ccc(F)cc2)ccc1Cl	x	u
COc1ccc(/C=C/C(=O)NC(=S)N2C[C@H]3C[C@H](C2)c2cccc(=O)n2C3)cc1OC	3%	-8%
CC(C)C(=O)Nc1ccc(-c2ccc3nncn3n2)cc1	-13%	7%
Cc1nc(=O)c(-c2ccccc2)c(C)n1CCCO	5%	-5%

(next part)
SMILES	VACV mCherry inh	Vaccinia Venus
COC(=O)c1cnc(Nc2nc(C(N)Cc3ccccc3)cs2)nc1C(F)(F)F (stereo not given)	-12%	-17%
CC1CCN(CCc2nc3cc(NC(=O)COc4ccc(Cl)cc4)ccc3n2C)CC1	-13%[7.34 µM]	-4%[7.34 µM]
Nc1c(C(=O)O)sc2nc(-c3ccccc3)c3c(c12)CCCC3	-13%	-21%
CCc1ccc(-c2ccc(SCc3ccccn3)nn2)cc1	-1%	-19%
O=C(NCc1nc2cccnc2n1Cc1ccc(F)cc1)c1ccccc1C(F)(F)F	i	-11%
O=C(Nc1nnc(-c2ccccc2)o1)c1cccc(N2C(=O)CCC2=O)c1	-12%	-1%
COc1cccc(C(=O)NCCS(=O)(=O)NCc2ccc3c(c2)OCO3)c1	-5%	-11%
CCc1cccc(C)c1NS(=O)(=O)c1c(C(=O)N2CCCCCC2)c(C)n(C)c1C	-10%	-17%
NC(=O)c1ccccc1NC(=O)Nc1cccc2ccccc12	-1%	-8%
Nc1nc(N2CCCCC2)nc(N2CCCCC2)n1	x	-17%
CC(OC(=O)COc1ccccc1Cc1ccccc1)C(=O)N(C)c1ccccc1 (stereo not given)	-8%	-4%
CCc1ccc2[nH]c(=O)c(CN(Cc3cccs3)Cc3nnnn3Cc3ccccc3)cc2c1	-12%	-30%
CC(/C=C1\SC(=S)N(CCC(=O)Nc2ccccc2O)C1=O)=C\c1ccccc1	-1%	-12%
COc1cc2c(cc1OC)C(C)N(C(=O)c1sc(-c3cnccn3)nc1C)CC2 (stereo not given)	-3%	-14%
Cc1ccc(S(=O)(=O)CC(CN2CCCCC2)N2CCCCC2)cc1 (stereo not given)	u	u
CC1(C)CC(=O)C2=C(C1)OC(N)=C(C#N)C21CCC2(CC1)OCCO2	-14%	-5%
COc1ccc(CCNC(=O)COC(=O)COc2c(C)cc(C)cc2C)cc1OC	-12%	-11%
O=C(CCCOc1ccccc1)NCC1CCCO1 (stereo not given)	-10%	-1%
Cc1cccnc1CCNC(=O)c1ccc(OC2CCN(Cc3ccccn3)CC2)cc1	-13%	-13%
Cc1ccc(C)c(Cn2nnc(C(=O)Nc3ccc4c(c3)OCCO4)c2N)c1	u	-29%
O=C(NCCO)C(=O)NCC(c1cccs1)S(=O)(=O)c1ccc(F)cc1 (stereo not given)	i	10%
COCCCNC(=O)c1ccc2c(c1)N(Cc1ccccc1F)C(=O)c1ccccc1S2=O (stereo not given)	-17%	-9%
COCCCNC(=O)c1cc2cc([N+](=O)[O-])cc(OC)c2oc1=O	-13%	-3%
